High-throughput results as filed in PubChem BioAssay.
HNF4A DNA FP: change in binding of human HNF4 alpha to DNA; HNF4a-FITC DNA binding, fluorescence polarization, 1 h; activity change, % at 10 µM; 360,000 compounds, 0.3% hits; AID 1224865; in the data active means activity change above about 30%, passing the limit was not always enough;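 further: controls were the assay level and a saturating level of protein; the project sought stronger binding though the title names inhibitors; some compounds called inactive have numbers as strong as hits; positive values seem to mean higher polarization but the record does not say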
RanGTP-Imp inh: disruptors of Ran-importin-beta complex formation – biochemical, FRET, CFP-Ran, YFP-importin-beta, homogeneous, primary screen. cell-free CFP-Ran/YFP-importin-beta FRET ratio. inhibition, % (no concentration beside the values). 300,000 compounds, 1.1% hits;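 active means most replicates above 15%; inconclusive means exactly half above 15%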;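 further: 0% = DMSO wells and 100% = Ran loaded with GDP instead of GTP; wells of about 40 µL received 100 nL stock; the first replicate is given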
Ecoli growth: E. coli growth inhibition. Escherichia coli growth, OD600, 23 h; active compounds read low. OD600 absorbance (no concentration beside the values). 330,000 compounds, 0.21% hits;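 active means OD600 absorbance below the run mean of sample wells minus 3.6 SD, in any replicate, cut at about 0.56 in these data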;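 further: stock transfer was 300 nL into about 60 µL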
FGF22 binding: shifts melting point of recombinant human FGF22 | recombinant FGF22 thermal shift, SYPRO orange fluorescence; percent of sucrose octasulfate shift, DMSO zero | calls only at 9.99 µM | 340,000 compounds, 1.5% hits;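 active means melting point raised past a set limit in the mean and every replicate; inconclusive means no clear call; three in four hits are not shown here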
Target sequence (Q9HCT0 whole entry, looked up): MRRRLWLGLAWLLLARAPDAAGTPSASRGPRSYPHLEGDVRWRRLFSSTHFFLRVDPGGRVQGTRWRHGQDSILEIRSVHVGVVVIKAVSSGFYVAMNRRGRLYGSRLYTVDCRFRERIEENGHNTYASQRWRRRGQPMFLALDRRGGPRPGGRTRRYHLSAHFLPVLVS
Vif A3G: inhibitors of Vif binding to APOBEC3G peptide, primary screen, biochemical, TR-FRET, GST-Vif 1-94, biotin-A3G peptide, dose response retest (AID 1117319). TR-FRET GST-Vif / biotin-A3G peptide binding; higher % means a stronger effect; test concentration not given here; strong numbers were not always called active. inhibition, %; hits with a dose series show IC50 in µM. 260,000 compounds, 0.57% hits;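 active means above the screen mean plus three standard deviations and confirmed in dose response; inconclusive means results disagree or hit not tested in dose response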;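 further: Vif residues 1-94 fused to GST binding biotinylated APOBEC3G peptide 110-148; 0% = full assay without inhibitor and 100% = GST in place of GST-Vif; retest series ran down from 100 µM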
UCH37 inh: inhibitors of human deubiquitinating enzyme UCH37 | inhibition, % (no concentration beside the values) | 330,000 compounds, 0.33% hits | purified proteasome/UCH37, Ub-AMC cleavage fluorescence | Q9Y5K5;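 active means mean of two replicates above 20%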;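 further: 0% = compound-free wells with enzyme and 100% = wells lacking proteasome; stock transfer was 100 nL into about 20 µL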
Target sequence (Q9Y5K5 whole entry, looked up): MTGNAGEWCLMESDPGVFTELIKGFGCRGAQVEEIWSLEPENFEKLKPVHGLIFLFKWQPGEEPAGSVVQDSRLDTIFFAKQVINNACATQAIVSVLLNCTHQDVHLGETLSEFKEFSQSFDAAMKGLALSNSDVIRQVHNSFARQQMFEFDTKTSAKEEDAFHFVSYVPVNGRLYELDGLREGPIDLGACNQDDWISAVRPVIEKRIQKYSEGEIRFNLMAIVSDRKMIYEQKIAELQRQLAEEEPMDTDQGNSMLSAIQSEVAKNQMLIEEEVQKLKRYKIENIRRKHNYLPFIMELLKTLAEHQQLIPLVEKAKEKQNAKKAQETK
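Material: human UCH37 enzyme supplied as purified proteasome complex / Amount: 0.15 nM proteasome as dispensed / Buffer or medium: pH 7.4 Tris-HCl (50 mM) with ovalbumin, ATP-MgCl2, DTT / Times: preincubation 30 min, reaction 25 min, room temperature / Technique: AMC fluorescence from Ub-AMC cleavage, excitation 355 nm, emission 460 nm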
MLL AF4-AF9 inh: inhibitors of human MLL-AF4/AF9 interaction | 350,000 compounds, 0.47% hits | AID 651704 | inhibition, % at 10 µM | AlphaScreen, biotin-AF4 peptide binding to FLAG-AF9;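 active means every replicate reaching a set inhibition limit, whatever the replicate mean, cut at about 25% in these data; inconclusive means mean inhibition reaches that limit but some replicates miss it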;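 further: 0% = plate neutral control median and 100% = total signal loss; the record names both 10 and 1 µM as test concentration; the first replicate is given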
Target sequence (P42568 whole entry, looked up): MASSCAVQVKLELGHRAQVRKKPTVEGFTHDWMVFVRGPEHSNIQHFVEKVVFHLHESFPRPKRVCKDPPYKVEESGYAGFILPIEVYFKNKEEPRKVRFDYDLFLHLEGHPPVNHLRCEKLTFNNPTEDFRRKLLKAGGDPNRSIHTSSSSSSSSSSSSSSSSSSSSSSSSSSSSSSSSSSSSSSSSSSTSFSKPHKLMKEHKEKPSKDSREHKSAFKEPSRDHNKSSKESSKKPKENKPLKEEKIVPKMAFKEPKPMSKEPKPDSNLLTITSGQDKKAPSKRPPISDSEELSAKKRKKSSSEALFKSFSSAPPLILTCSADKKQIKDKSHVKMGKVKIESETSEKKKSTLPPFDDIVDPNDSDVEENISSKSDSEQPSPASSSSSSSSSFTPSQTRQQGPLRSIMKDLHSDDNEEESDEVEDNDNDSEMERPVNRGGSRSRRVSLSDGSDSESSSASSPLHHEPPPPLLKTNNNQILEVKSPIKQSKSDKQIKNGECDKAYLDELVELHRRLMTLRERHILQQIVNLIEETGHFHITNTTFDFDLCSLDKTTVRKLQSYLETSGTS
Starred values were filed as active, the others as inactive; i = inactive; ? = inconclusive; / = no result given.

A first look (three entries):
SMILES	HNF4A DNA FP	RanGTP-Imp inh	Ecoli growth	FGF22 binding	Vif A3G	UCH37 inh	MLL AF4-AF9 inh
O=C(CNC(=O)c1ccc(Cl)cc1)OCCCOC(=O)CNC(=O)c1ccc(Cl)cc1	-3.0	2.9	0.678	i	/	7.5	-0.6
CCCc1nc2c3ccccc3ccn2c1Cc1ccc(OC)cc1C	42.7*	/	/	i	/	/	1.2
COc1ccc(NC(=O)CN2C(=O)CSC(C)C2=O)cc1 (stereo unspecified)	-1.3	-1.8	0.711	i	15.2%	1.8	0.7

The whole of this part, repeating the preview:
SMILES	HNF4A DNA FP	RanGTP-Imp inh	Ecoli growth	FGF22 binding	Vif A3G	UCH37 inh	MLL AF4-AF9 inh
O=C(CNC(=O)c1ccc(Cl)cc1)OCCCOC(=O)CNC(=O)c1ccc(Cl)cc1	-3.0	2.9	0.678	i	/	7.5	-0.6
CCCc1nc2c3ccccc3ccn2c1Cc1ccc(OC)cc1C	42.7*	/	/	i	/	/	1.2
COc1ccc(NC(=O)CN2C(=O)CSC(C)C2=O)cc1 (stereo unspecified)	-1.3	-1.8	0.711	i	15.2%	1.8	0.7
Cc1ccc(S(=O)(=O)N2CCCCC2)cc1NC(=O)COC(=O)CN1C(=O)NC2(CC(C)CC(C)(C)C2)C1=O (stereo unspecified)	0.3	/	0.664	i	/	0.9	-7.7
CCc1ccc(NC(=O)c2sc3nc(C)nc(N4CCN(c5ccccn5)CC4)c3c2C)cc1	-0.5	-2.7	0.693	i	-8.8%	-0.5	1.3
COc1ccc(CCNC(=O)COc2cc(O)c3c(c2)OC(C)(C)CC3=O)cc1	7.5	-2.0	0.761	i	/	-0.3	4.3
CCn1c(COc2cccc3cccnc23)nnc1SCC(=O)OC	2.1	-1.1	0.711	i	-13.3%	-5.7	-1.8
CCN(CC)C(=S)NC(=O)c1ccc(Cl)cc1Cl	-1.7	-2.4	0.661	/	10.4%	0.0	/
Cc1cc(Nc2cccc(F)c2)nc(N2CCOCC2)n1	3.0	3.7	0.659	i	30.7%	4.9	0.1
Oc1ccc(/C=N/N2CCN(c3ccccn3)CC2)cc1	2.0	1.4	/	i	-9.0%	/	4.9
O=C(Nc1ccc(Cl)cc1)N1CCN(c2ccc3nnc(-c4ccc(F)cc4)n3n2)CC1	-5.0	1.9	0.615	/	-9.0%	0.8	/
CC1CCCN(Cc2nc(Cc3ccccc3Cl)no2)C1 (stereo unspecified)	1.3	0.6	0.663	i	2.4%	1.3	-35.0
CCOC1=NC(C(=O)O)c2ccccc2/C(=C(/C)Cl)N1 (stereo unspecified)	0.1	6.3	/	/	-5.2%	-1.7	/
CCOC(=O)c1nn(C23CC4CC(CC(C4)C2)C3)c2c1C(=O)N(c1ccc(C)cc1)C2=O	2.5	-0.4	0.747	/	-1.4%	-3.8	/
Cc1ccc(S(=O)(=O)NN=C2C3CC4CC(C3)CC2C4)cc1	1.8	3.7	0.655	i	-2.2%	0.2	-1.2
O=C(NCc1cccc(Cl)c1)c1ccc(-c2ccc(F)c(F)c2)c2ccoc12	-4.5	/	/	i	/	/	-1.2
CCCc1cc(=O)[nH]c(SCC(=O)N2CCN(c3ccccc3)CC2)n1	0.6	-0.8	0.671	i	-1.2%	1.3	-11.6
COc1ccc(OC)c(N(CC(=O)N2CCC(C)CC2)S(=O)(=O)c2ccc(OC)c(OC)c2)c1	-2.5	6.6	0.667	/	-4.1%	-1.8	/
Fc1cccc(CNCc2ccc3c(c2)OCO3)c1	2.9	-2.4	0.679	i	/	1.6	-0.2
CN(Cc1nc2ccccc2c(=O)[nH]1)C(=O)c1cccc(S(=O)(=O)N2CCc3ccccc32)c1	2.0	/	0.694	i	/	3.1	1.3
CC(C)CNC(=O)NC(=O)COC(=O)Cn1cnc2ccccc2c1=O	-2.8	-1.3	0.722	i	-9.0%	-0.2	0.5
CCN(C(=O)c1ccc2c(=O)n3c(nc2c1)CCCCC3)c1ccc(F)cc1	-0.1	4.9	0.676	i	/	0.7	-8.1
CC(=O)NC1=NN(C(C)=O)C(C)(CS(=O)(=O)c2ccc3ccccc3c2)S1 (stereo unspecified)	-1.9	7.0	0.692	/	-2.5%	5.6	/
COc1cc(CNc2nnnn2C)cc(OC)c1OC	0.6	-2.2	0.696	i	/	-2.1	-1.6
O=C(Cc1ccc(Cl)cc1)NC1CC1	2.0	0.0	0.688	i	/	0.7	-1.4
SMILES	HNF4A DNA FP	RanGTP-Imp inh	Ecoli growth	FGF22 binding	Vif A3G	UCH37 inh	MLL AF4-AF9 inh
CN1CCC(N2CCN(C3CN(Cc4cn(Cc5ccc(F)cc5)nn4)S(=O)(=O)C3)CC2)CC1 (stereo unspecified)	0.3	/	/	i	/	/	-1.2
O=[N+]([O-])c1cc(S(=O)(=O)NC2=NCCCCC2)ccc1Cl	5.2	2.6	0.7	i	-6.8%	6.1	1.8
CCOc1ccc(Br)cc1CN(CC)CC	4.9	1.9	0.682	i	/	5.1	-1.7
O=C(NCc1cccs1)C(=O)NCC1OCCCN1S(=O)(=O)c1ccccc1 (stereo unspecified)	-0.9	4.5	0.725	/	10.3%	2.8	/
O=C(NCC1CCCO1)c1ccc(NC(=O)c2ccc([N+](=O)[O-])cc2)cc1 (stereo unspecified)	-3.3	0.3	0.668	i	/	2.2	-0.8
COc1cc(-c2nc(=S)[nH][nH]2)cc(OC)c1OC	3.7	2.0	0.704	/	-5.6%	-1.4	-5.3
COC(=O)c1[nH]c2ccc(Cl)cc2c1NC(=O)CCN1CCOCC1	-2.0	5.4	0.703	/	-2.2%	-11.2	/
Cc1ccc(NCC(=O)NNC2=NCCC2)c(C)c1	1.6	4.8	0.728	i	25.2%	0.4	-3.6
Cc1ccc(NCc2nc3ccccc3n2C)cc1	-1.3	-1.5	0.699	/	0.3%	0.4	/
OC(c1ccc(-c2ccccc2)cc1)c1ncc(-c2ccc(F)cc2)[nH]1 (stereo unspecified)	-4.2	/	/	i	/	/	-1.5
CC(=O)Nc1ccc(NC(=O)CSC2=NS(=O)(=O)c3cc(Cl)ccc3N2)cc1	-3.5	-2.8	0.69	i	0.0%	0.9	0.3
COc1ccc(/C=C/c2nnc(NC(=O)CSc3ccc(Cl)cc3)s2)cc1	2.7	-1.8	/	/	16.9%	/	/
COC(=O)c1sccc1NC(=O)CC1C(=O)NCCN1C(=O)Nc1ccc(C(F)(F)F)cc1 (stereo unspecified)	0.0	-0.2	0.619	i	2.4%	5.5	9.3
CCN1C=CC(=C2C(=O)c3ccccc3C2=O)C=C1	0.3	0.9	0.663	/	3.4%	16.5	/
Cc1ccn2cc(CNC(=O)c3cccs3)nc2c1	2.1	?	0.665	i	4.8%	5.0	9.6
O=C(CSc1ncc(-c2ccccc2)n1-c1ccccc1)NCc1ccco1	2.6	2.4	0.676	i	3.5%	-0.6	7.5
CCC(CC)C(=O)Nc1ccc([N+](=O)[O-])cn1	-1.9	2.6	0.622	i	-6.9%	2.6	-7.9
O=C(O)C(Cc1ccccc1)N1CCS(=O)(=O)CC1 (stereo unspecified)	-4.5	-0.9	0.712	/	/	0.1	1.2
CC(=O)NC(c1ccccc1)c1nc(-c2ccc(F)c(Cl)c2)cs1 (stereo unspecified)	2.2	/	/	i	/	/	-3.5
Cc1cc(C)nc(NS(=O)(=O)c2ccc(NC(=O)c3nn(-c4ccccc4)ccc3=O)cc2)n1	0.2	-1.2	0.718	i	/	5.8	-1.7
COc1ccc(-c2nc(N3CCCCCC3)sc2C(=O)c2ccccc2)cc1	-2.6	0.1	0.792	/	-7.3%	1.9	/
O=C(N/N=C\C=C\c1ccco1)C1COc2ccccc2O1 (stereo unspecified)	3.3	4.4	/	i	?	/	8.0
O=C(CCc1nnc(C2CCCCC2)o1)N1CCC(Oc2cccnc2)CC1	-2.5	4.7	0.699	i	-4.4%	0.3	1.1
COc1c(Cl)cc(-c2noc(C)c2C(=O)NCc2ccccc2)cc1Cl	-0.2	-5.8	0.74	i	0.9%	3.1	1.0
Cc1ccc(NC(=O)CN2C(=O)N/C(=C/c3ccc4c(c3)OCCO4)C2=O)cc1	6.0	2.6	0.744	i	-0.5%	-53.8	0.4
SMILES	HNF4A DNA FP	RanGTP-Imp inh	Ecoli growth	FGF22 binding	Vif A3G	UCH37 inh	MLL AF4-AF9 inh
CCN(CC)S(=O)(=O)c1ccc(C)c(NC(=S)N2CCN(c3ccccn3)CC2)c1	0.0	-1.5	0.703	i	/	-2.4	-1.1
O=C(NCCCN1CCOCC1)C1CC(=O)N(C2CCCCC2)C1 (stereo unspecified)	-0.2	0.1	0.745	/	4.4%	1.3	/
Cc1cc(C)nc(SCC(=O)NC2CCCC2)n1	5.9	-3.3	0.724	i	23.8%	1.2	-1.2
Cc1cc(C(F)(F)Cl)n2ncc(-c3ccccn3)c2n1	-1.3	-0.6	0.651	i	-5.2%	3.9	0.4
CCN(Cc1nc2ccccc2c(=O)[nH]1)Cc1nc2cc(OC)c(OC)cc2c(=O)[nH]1	3.4	1.4	0.677	/	-1.4%	1.6	/
Cc1ccc(Cl)cc1NC(=O)c1cc(NC(=O)CCCC(=O)O)ccc1N1CCCCC1	-2.8	6.5	0.712	i	/	-4.9	-6.5
S=c1[nH]nc(-c2ccccn2)n1/N=C/c1ccc(-c2ccccc2Br)o1	-0.6	1.5	/	i	-11.6%	/	-3.2
CCCCC(=O)NNC(=S)NC(=O)C(c1ccccc1)c1ccccc1	-2.4	2.8	0.693	i	1.1%	2.9	0.1
NNC(=O)CNC(c1ccccc1)c1cc(Br)ccc1N (stereo unspecified)	-2.9	3.5	0.664	i	-3.9%	1.1	-0.8
CCOC(=O)[C@]12CCCC=C1N(Cc1cccc3ccccc13)C(=O)[C@H](CC(=O)N1CCC(c3ccccc3)CC1)C2	-4.4	/	/	i	/	/	1.5
CCOc1ccc(S(=O)(=O)NC(=O)c2ccccc2)cc1	-0.5	-2.0	0.642	i	/	1.6	-1.8
CC(=O)c1ccc(OCc2cn(CC(=O)c3ccc(O)cc3)nn2)cc1	3.6	/	/	i	/	/	-0.6
CC(C)CC1NC(=O)N(CC(=O)NC2CCCc3ccccc32)C1=O (stereo unspecified)	-2.4	3.5	0.693	i	2.1%	4.2	-2.8
CCOC(=O)C1CCN(C2CCN(C(=O)c3oc4c(C)c(C)ccc4c3C)CC2)CC1	19.8	?	0.648	i	/	4.4	0.0
Cc1cc(C)nc(Nc2ccccc2F)n1	-0.7	0.3	0.675	i	/	-0.4	-1.3
O=[N+]([O-])c1ccccc1S(=O)(=O)N1CCN(C2CCN(Cc3ccccc3)CC2)CC1	1.9	-2.3	0.68	i	/	2.0	2.1
CCC(=O)NCCCOc1ccccc1	0.7	3.7	0.724	i	1.7%	1.2	0.4
c1ccc2c(c1)COC(CNC1CCCCC1)OC2	-2.4	/	0.652	i	1.1%	0.9	-0.5
CCOc1ccc(NC(=O)COC(=O)Cn2cnc3ccccc32)cc1	0.2	/	0.686	i	/	3.3	-3.4
Cc1nc(CS(=O)(=O)c2ccccn2)sc1C(=O)NNC(=O)c1ccc(Cl)cc1	-1.7	1.5	0.685	i	-5.3%	5.6	-1.0
Cn1c(C(=O)N2CCN(Cc3ccccc3)CC2)cc2c(=O)n(C)c3ccccc3c21	7.2	-0.4	0.734	i	-0.9%	2.7	-2.1
CCCS(=O)(=O)C(=C1NCCO1)S(=O)(=O)CCC	3.8	-5.4	0.704	/	-0.7%	3.4	/
COc1ccc(NC(=O)c2cccc(N3C(=O)C4C5C=CC(C5)C4C3=O)c2)c(OC)c1 (stereo unspecified)	2.4	3.1	0.715	i	?	3.3	7.6
COc1ccc(NC(=O)CCN2CC(C)OC(C)C2)c(OC)c1 (stereo unspecified)	-0.4	-2.1	0.74	/	5.1%	0.2	/
O=C(O)c1c2c(nc3ccc(S(=O)(=O)N4CCC(C(=O)NCc5ccccc5Cl)CC4)cc13)CCCC2	-5.0	2.3	0.657	i	4.4%	-2.4	-1.2

Only part of the results is shown; rates above refer to the full screens.
